c-Myc SMM – binds human c-Myc on microarray; P01106; small molecule microarray, His-c-Myc binding, anti-His fluorescence; calls only; 1.5% of 17,000 active; AID 624141;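 active = spot fluorescence over background with P-value below 7% in all four replicate spots, showing protein binding; compounds were printed on slides so no solution concentration is given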;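 also: score is binary with 100 for all four spots passing and 0 otherwise; about 2 pmol printed per array spot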
Target sequence (P01106 whole entry, looked up): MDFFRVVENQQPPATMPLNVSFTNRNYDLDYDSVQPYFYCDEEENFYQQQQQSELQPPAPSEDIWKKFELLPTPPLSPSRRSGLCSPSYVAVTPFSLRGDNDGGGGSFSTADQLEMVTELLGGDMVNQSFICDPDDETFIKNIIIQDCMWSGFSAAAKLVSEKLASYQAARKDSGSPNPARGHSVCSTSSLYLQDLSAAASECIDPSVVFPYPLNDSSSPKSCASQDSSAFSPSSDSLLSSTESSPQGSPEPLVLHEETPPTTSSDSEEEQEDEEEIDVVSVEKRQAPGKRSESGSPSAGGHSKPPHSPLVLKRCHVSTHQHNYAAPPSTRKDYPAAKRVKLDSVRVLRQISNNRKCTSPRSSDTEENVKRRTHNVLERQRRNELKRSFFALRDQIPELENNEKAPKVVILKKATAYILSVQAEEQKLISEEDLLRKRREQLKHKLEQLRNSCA
STAT3 binder – binds human STAT3 on microarray | calls only | Small molecule microarray, His-STAT3 binding, anti-His fluorescence | AID 624138 | 0.2% of 17,000 active;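 active = compounds whose four printed spots each show fluorescence over background unusually high for their array block, chance value under 7%; compounds were printed on slides so no solution concentration is given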;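 also: about 2 pmol printed per array spot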
mut p53 SMM – binders of human mutant p53; small molecule microarray binding, anti-GST fluorescence; calls only; 0.4% of 17,000 active; AID 624136;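 active = compounds whose four printed spots each glow above background more than chance allows, each with a p-value under 7%; compounds were printed on slides so no solution concentration is given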;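 also: about 2 pmol printed per array spot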
ID4 SMM – ID4 (human) binding; AID 624137; calls only; 1.2% of 31,000 active; small molecule microarray, Flag-ID4 binding, fluorescence F/B;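 active = spot signal over background at p below 0.07 in all four prints; compounds were printed on slides so no solution concentration is given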;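 also: a binder raises fluorescence above local background on the spot; about 2 pmol printed per array spot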
Target sequence (P47928 whole entry, looked up): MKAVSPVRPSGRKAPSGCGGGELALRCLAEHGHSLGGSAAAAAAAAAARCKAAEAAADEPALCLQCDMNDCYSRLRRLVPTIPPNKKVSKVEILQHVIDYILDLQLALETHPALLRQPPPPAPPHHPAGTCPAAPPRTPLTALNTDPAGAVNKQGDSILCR
Calls only. An unsorted share of the library; any-hit rate near 3.7%.

Screening CNC[C@H]1Oc2c(NS(=O)(=O)c3ccc(OC)cc3)cccc2C(=O)N([C@H](C)CO)C[C@H]1C returned c-Myc SMM inactive, STAT3 binder inactive, mut p53 SMM inactive and ID4 SMM inactive.
C[C@H](CO)N1C[C@H](C)[C@@H](CN(C)C)Oc2ccc(NS(=O)(=O)c3ccc(F)cc3)cc2C1=O was read as c-Myc SMM inactive, STAT3 binder inactive and mut p53 SMM inactive.
Screening O=S(=O)(Cc1ccc(Cl)cc1)NCc1ccccn1 returned c-Myc SMM inactive, STAT3 binder inactive, mut p53 SMM inactive and ID4 SMM inactive.
`Cc1ccc(OCC(=O)Nc2sc3c(c2C(N)=O)CCCC3)cc1` gave c-Myc SMM inactive, STAT3 binder inactive, mut p53 SMM inactive and ID4 SMM inactive.
Screening O=C1OC(OC(=O)c2cccnc2Nc2cccc(C(F)(F)F)c2)c2ccccc21 (configuration not stated) returned c-Myc SMM inactive, STAT3 binder inactive, mut p53 SMM inactive and ID4 SMM inactive.
`C=CCOC(=O)[C@H]1[C@@H]2C(=O)O[C@@H](c3ccccc3)[C@@H](c3ccccc3)N2[C@@H](c2ccc(OCCOC(=O)[C@@H]3C[C@@H]4C(=O)NCC(=O)N4[C@@H]3c3ccc(O)cc3)cc2)[C@]12C(=O)Nc1ccc(I)cc12` gave c-Myc SMM inactive, STAT3 binder inactive, mut p53 SMM inactive and ID4 SMM inactive.
C[C@@H]1CN([C@@H](C)CO)C(=O)Cc2cc(NC(=O)Cc3cn(C)c4ccccc34)ccc2O[C@@H]1CN(C)S(C)(=O)=O was read as c-Myc SMM inactive, STAT3 binder inactive and mut p53 SMM inactive.
Screening C[C@H](CO)N1C[C@H](C)[C@H](CN(C)S(=O)(=O)c2cn(C)cn2)Oc2ncc(-c3ccccc3)cc2C1=O returned c-Myc SMM inactive, STAT3 binder inactive, mut p53 SMM inactive and ID4 SMM inactive.
CC(C)NC(=O)Nc1ccc2c(c1)CC(=O)N([C@H](C)CO)C[C@H](C)[C@H](CN(C)Cc1ccc(C(F)(F)F)cc1)O2 was read as c-Myc SMM inactive, STAT3 binder inactive, mut p53 SMM inactive and ID4 SMM inactive.
For CCn1c(SCc2cccc(OC)c2)nnc1-c1cccnc1 the results were c-Myc SMM inactive, STAT3 binder inactive, mut p53 SMM inactive and ID4 SMM inactive.
`CC(C)NC(=O)N(C)C[C@H]1Oc2ccc(NC(=O)CCC(F)(F)F)cc2C(=O)N([C@@H](C)CO)C[C@@H]1C` gave c-Myc SMM inactive, STAT3 binder inactive, mut p53 SMM inactive and ID4 SMM inactive.
For COc1ccc(CN(C)C[C@@H]2Oc3c(NC(=O)NC(C)C)cccc3C(=O)N([C@H](C)CO)C[C@@H]2C)cc1 the results were c-Myc SMM inactive, STAT3 binder inactive, mut p53 SMM inactive and ID4 SMM inactive.
For Nc1nncn1C(=O)CCCOc1ccccc1 the results were c-Myc SMM inactive, STAT3 binder inactive, mut p53 SMM inactive and ID4 SMM inactive.
For O=C(Nc1cnn(C23CC4CC(CC(C4)C2)C3)c1)C1CC(c2ccc(Cl)c(Cl)c2)=NO1 (configuration not stated) the results were c-Myc SMM inactive, STAT3 binder inactive, mut p53 SMM inactive and ID4 SMM inactive.
COc1ccc(S(=O)(=O)N(C)C[C@@H]2Oc3ccc(NS(C)(=O)=O)cc3CC(=O)N([C@H](C)CO)C[C@@H]2C)cc1 was read as c-Myc SMM inactive, STAT3 binder inactive, mut p53 SMM inactive and ID4 SMM inactive.
`CC(C)NC(=O)Nc1ccc2c(c1)C(=O)N([C@H](C)CO)C[C@H](C)[C@H](CN(C)C(=O)CCC(F)(F)F)OCCCC[C@H](C)O2` gave c-Myc SMM inactive, STAT3 binder inactive, mut p53 SMM inactive and ID4 SMM inactive.
`C[C@H]1[C@H](C)CC[C@]2(C(=O)O)CC[C@]3(C(=O)O)C(=CCC4[C@@]5(C)CC[C@H](O[C@@H]6O[C@@H](C)[C@H](O)[C@@H](O)[C@H]6O)C(C)(C)C5CC[C@]43C)[C@H]12` (some centres not stated) gave c-Myc SMM inactive, STAT3 binder inactive, mut p53 SMM inactive and ID4 SMM inactive.
CN(C)c1ccc(NC(=O)CSc2nc3c(c(C(F)(F)F)c2C#N)CCCCCC3)cc1 was read as c-Myc SMM inactive, STAT3 binder inactive, mut p53 SMM inactive and ID4 SMM inactive.
For Oc1cc2c(c(Cl)c1O)CCNC[C@@H]2c1ccccc1 the results were c-Myc SMM inactive, STAT3 binder inactive, mut p53 SMM inactive and ID4 SMM inactive.
For C[C@H](CO)N1C[C@H](C)[C@@H](CN(C)C(=O)CCC(F)(F)F)OCCCC[C@H](C)Oc2ccc(NS(=O)(=O)c3ccccc3)cc2C1=O the results were c-Myc SMM inactive, STAT3 binder inactive, mut p53 SMM inactive and ID4 SMM inactive.

Reprinted from the part before: 5 entries, then new ones.
`CC(C)NC(=O)Nc1ccc2c(c1)C(=O)N([C@H](C)CO)C[C@H](C)[C@H](CN(C)C(=O)CCC(F)(F)F)OCCCC[C@H](C)O2` gave c-Myc SMM inactive, STAT3 binder inactive, mut p53 SMM inactive and ID4 SMM inactive.
`C[C@H]1[C@H](C)CC[C@]2(C(=O)O)CC[C@]3(C(=O)O)C(=CCC4[C@@]5(C)CC[C@H](O[C@@H]6O[C@@H](C)[C@H](O)[C@@H](O)[C@H]6O)C(C)(C)C5CC[C@]43C)[C@H]12` (some centres not stated) gave c-Myc SMM inactive, STAT3 binder inactive, mut p53 SMM inactive and ID4 SMM inactive.
CN(C)c1ccc(NC(=O)CSc2nc3c(c(C(F)(F)F)c2C#N)CCCCCC3)cc1 was read as c-Myc SMM inactive, STAT3 binder inactive, mut p53 SMM inactive and ID4 SMM inactive.
For Oc1cc2c(c(Cl)c1O)CCNC[C@@H]2c1ccccc1 the results were c-Myc SMM inactive, STAT3 binder inactive, mut p53 SMM inactive and ID4 SMM inactive.
For C[C@H](CO)N1C[C@H](C)[C@@H](CN(C)C(=O)CCC(F)(F)F)OCCCC[C@H](C)Oc2ccc(NS(=O)(=O)c3ccccc3)cc2C1=O the results were c-Myc SMM inactive, STAT3 binder inactive, mut p53 SMM inactive and ID4 SMM inactive.
`COc1ccc(S(=O)(=O)N(C)C[C@H]2Oc3c(NC(=O)c4cnccn4)cccc3C(=O)N([C@H](C)CO)C[C@@H]2C)cc1` gave c-Myc SMM inactive, STAT3 binder inactive, mut p53 SMM inactive and ID4 SMM inactive.
`COc1ccc(CN(C)C[C@H]2Oc3ccc(NC(=O)Nc4ccc(OC)cc4)cc3CC(=O)N([C@@H](C)CO)C[C@H]2C)cc1` gave c-Myc SMM inactive, STAT3 binder inactive, mut p53 SMM inactive and ID4 SMM inactive.
For C[C@H](CO)N1C[C@H](C)[C@H](CN(C)C(=O)Nc2ccccc2)OCCCC[C@H](C)Oc2ccc(NC(=O)Cc3ccccc3)cc2C1=O the results were c-Myc SMM inactive, STAT3 binder inactive, mut p53 SMM inactive and ID4 SMM inactive.
COc1ccc([Si](C)(C)[C@@H]2[C@@H](CCn3cc(CCO)nn3)O[C@]3(C(=O)N(Cc4ccc(N5CCOC5=O)cc4)c4ccccc43)[C@H]2C)cc1 was read as c-Myc SMM inactive, STAT3 binder inactive, mut p53 SMM inactive and ID4 SMM inactive.
C[C@H]1CN([C@@H](C)CO)C(=O)c2cccc(NC(=O)c3ccncc3)c2O[C@H]1CN(C)Cc1ccc(Oc2ccccc2)cc1 was read as c-Myc SMM inactive, STAT3 binder inactive, mut p53 SMM inactive and ID4 SMM inactive.
Screening C[C@@H]1CN([C@@H](C)CO)C(=O)c2cc(NC(=O)NC3CCCCC3)ccc2O[C@@H]1CN(C)Cc1ccc2c(c1)OCO2 returned c-Myc SMM inactive, STAT3 binder inactive, mut p53 SMM inactive and ID4 SMM inactive.
CCO[C@@H]1OC(C(=O)N2CCN(Cc3ccccc3)CC2)=C[C@H](c2ccc3c(c2)OCO3)[C@H]1CCCO was read as c-Myc SMM inactive, STAT3 binder inactive, mut p53 SMM inactive and ID4 SMM inactive.
For Cc1noc(C)c1NC(=O)Nc1ccc2c(c1)C(=O)N([C@H](C)CO)C[C@H](C)[C@@H](CN(C)C)OCCCC[C@@H](C)O2 the results were c-Myc SMM inactive, STAT3 binder inactive, mut p53 SMM inactive and ID4 SMM inactive.
For C[C@@H]1CN([C@@H](C)CO)C(=O)c2cc(NC(=O)Nc3cccc4ccccc34)ccc2O[C@@H](C)CCCCO[C@@H]1CN(C)CC1CCCCC1 the results were c-Myc SMM active, STAT3 binder inactive and mut p53 SMM inactive.
Screening O=C(Oc1ccc2ccccc2c1)c1ccccc1S(=O)(=O)c1ccccc1[N+](=O)[O-] returned c-Myc SMM inactive, STAT3 binder inactive, mut p53 SMM inactive and ID4 SMM inactive.
COc1ccc(C#Cc2cnc3c(c2)C(=O)N([C@H](C)CO)C[C@H](C)[C@H](CN(C)S(=O)(=O)c2cccs2)O3)cc1OC was read as c-Myc SMM inactive, STAT3 binder inactive, mut p53 SMM inactive and ID4 SMM inactive.
For CCC(=O)[C@@]1(C)[C@H](C)C[C@H]2[C@@H]3CCC4=CC(=O)C=C[C@]4(C)[C@H]3[C@@H](O)C[C@@]21C the results were c-Myc SMM inactive, STAT3 binder inactive, mut p53 SMM inactive and ID4 SMM inactive.
`C[C@@H]1CCCCO[C@H](CN(C)C(=O)C2CCCCC2)[C@@H](C)CN([C@H](C)CO)C(=O)c2cc(N(C)C)ccc2O1` gave c-Myc SMM inactive, STAT3 binder inactive, mut p53 SMM inactive and ID4 SMM inactive.
C[C@H](CO)N1C[C@H](C)[C@H](CN(C)S(C)(=O)=O)Oc2ccc(NS(=O)(=O)c3cccs3)cc2C1=O was read as c-Myc SMM inactive, STAT3 binder inactive and mut p53 SMM inactive.
COC(=O)c1cn(CC(=O)N2CCC3(CC2)C(=O)NCN3c2ccccc2)nn1 was read as c-Myc SMM inactive, STAT3 binder inactive and mut p53 SMM inactive.
C[C@@H]1CN([C@H](C)CO)C(=O)c2cccc(NS(=O)(=O)c3cn(C)cn3)c2O[C@H]1CN(C)C(=O)Nc1cccc2ccccc12 was read as c-Myc SMM inactive, STAT3 binder inactive, mut p53 SMM inactive and ID4 SMM inactive.
Screening C[C@H]1CN([C@@H](C)CO)C(=O)Cc2cc(NC(=O)Nc3ccccc3)ccc2O[C@H]1CN(C)S(C)(=O)=O returned c-Myc SMM inactive, STAT3 binder inactive and mut p53 SMM inactive.
`COc1ccc(S(=O)(=O)Nc2ccc3c(c2)C(=O)N([C@@H](C)CO)C[C@@H](C)[C@H](CN(C)Cc2ccc(C(F)(F)F)cc2)O3)cc1` gave c-Myc SMM inactive, STAT3 binder inactive, mut p53 SMM inactive and ID4 SMM inactive.
Screening C[C@H]1CCCCO[C@H](CN(C)C(=O)Cc2ccccc2)[C@@H](C)CN([C@@H](C)CO)C(=O)c2cc(NS(C)(=O)=O)ccc2O1 returned c-Myc SMM inactive, STAT3 binder inactive, mut p53 SMM inactive and ID4 SMM inactive.
Screening O=C(NCc1nc2ccccc2[nH]1)c1ccccc1 returned c-Myc SMM inactive, STAT3 binder inactive, mut p53 SMM inactive and ID4 SMM inactive.
Screening C[C@H](CO)N1C[C@H](C)[C@H](CN(C)CC2CCCCC2)Oc2ccc(NS(=O)(=O)c3ccc(Cl)cc3)cc2CC1=O returned c-Myc SMM inactive, STAT3 binder inactive, mut p53 SMM inactive and ID4 SMM inactive.
`Cc1sc2ncnc(SCC(=O)Nc3ccccc3[N+](=O)[O-])c2c1C` gave c-Myc SMM inactive, STAT3 binder inactive, mut p53 SMM inactive and ID4 SMM inactive.
For C[C@H]1CN([C@@H](C)CO)C(=O)c2cc(NC(=O)Cn3cnnn3)ccc2O[C@H]1CN(C)CC1CC1 the results were c-Myc SMM inactive, STAT3 binder inactive, mut p53 SMM inactive and ID4 SMM inactive.
Screening C[C@@H]1CCCCO[C@H](CN(C)C(=O)C2CCCCC2)[C@H](C)CN([C@@H](C)CO)C(=O)c2cc(NC(=O)c3ccncc3)ccc2O1 returned c-Myc SMM inactive, STAT3 binder inactive, mut p53 SMM inactive and ID4 SMM inactive.
O[C@@H]1[C@@H](O)C=C2CCN3Cc4cc5c(cc4[C@H]1C23)OCO5 (some centres not stated) was read as c-Myc SMM inactive, STAT3 binder inactive and mut p53 SMM inactive.
`C=C[C@@]1(C)C[C@@H](O)C2=C([C@H]1O)[C@H](OC(C)=O)CC1[C@](C)(C(=O)OC)CC[C@H](O)[C@]21C` (some centres not stated) gave c-Myc SMM inactive, STAT3 binder inactive and mut p53 SMM inactive.
For [N-]=[N+]=Nc1ccccc1C[C@]1(C(=O)NCCN2CCOCC2)N=C(c2ccc(OCCCO)cc2)O[C@H]1c1ccccc1 the results were c-Myc SMM inactive, STAT3 binder inactive, mut p53 SMM inactive and ID4 SMM inactive.
Screening Cc1noc(C)c1NC(=O)N(C)C[C@@H]1Oc2c(NC(=O)c3cnccn3)cccc2C(=O)N([C@@H](C)CO)C[C@@H]1C returned c-Myc SMM inactive, STAT3 binder inactive, mut p53 SMM inactive and ID4 SMM inactive.
For C[C@H]1CN([C@@H](C)CO)C(=O)c2cc(NC(=O)Cc3cn(C)c4ccccc34)ccc2O[C@@H]1CN(C)C(=O)Nc1ccccc1 the results were c-Myc SMM inactive, STAT3 binder inactive, mut p53 SMM inactive and ID4 SMM inactive.
`C[C@H]1CN([C@@H](C)CO)C(=O)c2cc(N(C)C)ccc2O[C@@H]1CN(C)C` gave c-Myc SMM inactive, STAT3 binder inactive, mut p53 SMM inactive and ID4 SMM inactive.
